Biofilm kill mix: clotrimazole potentiators killing C. albicans biofilm, primary screen, 4-compound mixtures. inhibition, % at 7.6 µM. AID 1242, 2008. C. albicans biofilm persisters + clotrimazole, fluorescence viability; primary screen in compound mixtures of four per well. actives 0.02% (n = 120,000);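 active means inhibition above 30.3% in the primary screen of four-compound pools, then above 30% when the compound was retested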;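 further: compounds exposed to preformed 24 h biofilms for 48 h; the number belongs to the whole pool; some results filed as inactive read as strong as hits; inactives centre near 12; 0% = biofilm with clotrimazole alone and 100% = kill control; retested singly at about 60 µM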
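Test system: C. albicans CAF4-2 wild-type biofilms; buffer or medium: RPMI/MOPS medium, pH 7.0; schedule: 24 h biofilm formation, then 48 h compound exposure, 37 °C; detection: Alamar Blue fluorescence; measure: percent inhibition of biofilm viability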
* hit, by the source's call. A portion of the library; count on the stated rates, not on these rows.

Sample of the layout (6 entries):
SMILES	Biofilm kill mix
Cc1ccc(Cl)cc1-n1ncc2c(NNC(=O)c3ccco3)ncnc21	14
COc1ccc(S(=O)(=O)N(C)C)cc1NCC(=O)Nc1ccc(F)cc1F	18
CCOC(=O)NCCOC(=O)Nc1ccc(Cl)cc1	18
CCn1nc(C)cc1C(=O)N1CCc2c([nH]c3ccccc23)C1c1cc(F)ccc1F (centres undefined)	-1
CC1CCCN(CCCOc2ccc(Cl)cc2Br)C1 (centres undefined)	11
CC1=C(C(=O)OCC2CCCO2)C(c2ccc(F)cc2)NC(=O)N1 (centres undefined)	23

This part in full, previewed entries included:
SMILES	Biofilm kill mix
Cc1ccc(Cl)cc1-n1ncc2c(NNC(=O)c3ccco3)ncnc21	14
COc1ccc(S(=O)(=O)N(C)C)cc1NCC(=O)Nc1ccc(F)cc1F	18
CCOC(=O)NCCOC(=O)Nc1ccc(Cl)cc1	18
CCn1nc(C)cc1C(=O)N1CCc2c([nH]c3ccccc23)C1c1cc(F)ccc1F (centres undefined)	-1
CC1CCCN(CCCOc2ccc(Cl)cc2Br)C1 (centres undefined)	11
CC1=C(C(=O)OCC2CCCO2)C(c2ccc(F)cc2)NC(=O)N1 (centres undefined)	23
COc1ccc(OCC(=O)NNC(=O)c2c(-c3ccccc3Cl)noc2C)cc1	11
O=C(OCc1cc2ccccc2[nH]c1=O)c1ccc([N+](=O)[O-])cc1	25
CCOC(=O)c1cc2c(=O)n3ccccc3nc2n(CC(C)C)c1=NC(=O)c1c(-c2c(F)cccc2Cl)noc1C	8
COc1ccc(-c2csc(NC(=O)COC(=O)C3=COCCO3)n2)cc1	12

Among those listed so far, 3 have four or more nitrogen atoms.
SMILES	Biofilm kill mix
Cc1ccc(Cl)cc1-n1ncc2c(NNC(=O)c3ccco3)ncnc21	14
CCn1nc(C)cc1C(=O)N1CCc2c([nH]c3ccccc23)C1c1cc(F)ccc1F (centres undefined)	-1
CCOC(=O)c1cc2c(=O)n3ccccc3nc2n(CC(C)C)c1=NC(=O)c1c(-c2c(F)cccc2Cl)noc1C	8

Continuation.
SMILES	Biofilm kill mix
O=C(c1cnsn1)N1CCC(CO)(Cc2ccc(Cl)cc2)CC1	13
Cc1cc(C)c(-n2c(SCCS(=O)(=O)c3ccc(F)cc3)n[nH]c2=O)c(C)c1	12
CCc1ccc(N2CC(O)(c3cccs3)[N+]3=C2SCCC3)cc1 (centres undefined)	6
CCS(=O)(=O)NCC(c1ccco1)N1CCN(c2ccccc2F)CC1 (centres undefined)	0
COC(=O)Cc1c(O)ccn(CCc2ccccc2)c1=O	21
Brc1c(CSc2nc3ccccc3s2)nc2ncccn12	6
Cn1cc(-c2ccccc2)cc(C#N)c1=O	12
Cc1ccccc1-n1cnnc1SCC(=O)Nc1cccnc1Cl	11
COc1ccc2c(c1)CCN1C2CCN2C(=O)CCC21 (centres undefined)	14
COc1ccc(C(C)=O)cc1COc1ccc(Cl)c(C)c1	23
CCn1cc(C(=O)Nc2ccc(NC(=O)c3ccco3)cc2)c(=O)c2ccc(C)nc21	7
O=C1C=CC(=O)N1c1cccc(-c2ccccc2)c1	-2
O=C(Nc1cccc(F)c1)/C(=C\c1cccnc1)NC(=O)c1ccco1	32
COc1ccc(C(C)=O)cc1COc1nc(C)nc2ccccc12	13
O=C(O)Cn1ncn(-c2ccc(OC(F)(F)F)cc2)c1=O	11
CCCOC(=O)c1ccc(NC(=O)C(CC)CC)cc1	16
CCOC(=O)NC(=O)C(=CNc1ccccc1C)C(=O)NC(=O)OCC	12
COc1cc(/C=C/C(=O)OCC(=O)NC(=O)NC(C)(C)C)ccc1O	19
CN(C(=O)COC(=O)c1cn(-c2ccccc2)nc1-c1ccccc1)C1CCS(=O)(=O)C1 (centres undefined)	9
CC(=O)c1ccc(NC(=O)N2CCCC(C(=O)c3ccc4c(c3)OCO4)C2)cc1 (centres undefined)	12
COCCCN(CC(=O)Nc1ccc(N2CCOCC2)cc1)S(=O)(=O)c1ccccc1	-3
CCN(CC)S(=O)(=O)c1cc(NS(=O)(=O)c2c(Cl)cccc2Cl)ccc1C	20
CCC(C)N1CNc2c(c(=O)[nH]c(=S)n2-c2cccc(C)c2)C1 (centres undefined)	3
COc1ccccc1NC(=O)CN1CC(=O)Nc2ccccc21	13
CNC(=S)N/N=C(\C)c1cccc([N+](=O)[O-])c1	21
CCOC(CCc1c(C)nc(NC(C)=O)[nH]c1=O)OCC	25
CCn1cc([N+](=O)[O-])c(C(=O)Nc2c(C)nn(Cc3cccc(F)c3)c2C)n1	7
O=C(N/N=C/c1ccc([N+](=O)[O-])o1)c1ccc(NS(=O)(=O)c2cccs2)cc1	0
Cc1c(F)cccc1NS(=O)(=O)c1ccc2c(c1)c(=O)n(C)c(=O)n2C	13
CCN(CC)S(=O)(=O)c1ccc(NC(=O)c2cccc3c2C(=O)N(CCOC)C3)cc1	11
CCCCOc1ccc(N(CC(=O)NC(C)(C)CC)C(=O)CCC(=O)Nc2ccccn2)cc1	10
CN(c1ccccc1)S(=O)(=O)c1cc(C(=O)Nc2nc3ccccc3[nH]2)ccc1Cl	25
CCOCCCNC(=S)N1CCN(Cc2ccco2)CC1	10
O=C(CCSCCc1ccccn1)Nc1cc(F)ccc1F	12
O=C(CC(C(=O)O)P(=O)(c1ccccc1)c1ccccc1)c1ccccc1 (centres undefined)	-1
Cc1c(C(=O)NCCn2ccc3ccccc32)cccc1[N+](=O)[O-]	-8
CC1=C(C)CC(C(=O)NNC(=O)c2cccc(Cl)c2)C(C(=O)O)C1 (centres undefined)	9
O=C1/C(=C/c2ccco2)SC(=S)N1CC1CCCO1 (centres undefined)	13
COc1ccc(N2CCN(c3ccc(Cl)nn3)CC2)cc1	4
COc1ccccc1-c1ccc(Nc2ccc(C(=O)N3CCOCC3)cc2)nn1	13
COc1ccc2[nH]c(C)c(CCNC(=S)Nc3cccc(C)c3C)c2c1	13
CCOC(=O)CSc1nc2c(sc(=S)n2-c2ccc(OCC)cc2)c(=O)[nH]1	12
C=CCNC(=O)/C(C#N)=C/c1c(N2CC(C)OC(C)C2)nc2ccccn2c1=O (centres undefined)	9
Cc1ccc(NC(=O)CSc2nnc(-c3ccco3)o2)cc1	23
CCOP(=O)(OCC)C(Nc1ccc(F)cc1)c1ccccc1 (centres undefined)	8
O=C(NC1CC1)C1CCN(C2CCN(C(=O)CSc3ccccc3)CC2)CC1	26
O=C(N/N=C/c1ccc(N2CCOCC2)o1)c1cccc(F)c1	8
Cc1ccccc1N1CC(C(=O)O)CC1=O (centres undefined)	7
Cc1c(Cl)c([N+](=O)[O-])nn1CCCC(=O)Nc1cccc(O)c1	18
Cc1ccc(NC(=O)Nc2cc(Cl)ccc2C2COC(=O)C2=N)cc1 (centres undefined)	14

Later entries.
SMILES	Biofilm kill mix
COc1ccc(CCNC(=O)CCCn2c(SCC(N)=O)nc3cc4c(cc3c2=O)OCO4)cc1OC	11
CCC(Sc1nc2ccccc2s1)C(=O)Nc1cc(C)on1 (centres undefined)	11
Cc1ccc(C)c(NC(=O)Cn2nnc(-c3ccc(N4CCOCC4)cc3)n2)c1	20
CCOc1ccccc1CN1CCC(CO)(CCOc2ccccc2)CC1	1
CCOc1ccc(C(C)=O)cc1CSC(=N)N	15
CC(=O)Oc1cccc(C(=O)Nc2c[nH]c(=O)[nH]c2=O)c1	-2
O=S1(=O)CCC(NC(=S)Nc2ccc(Cl)cc2)C1 (centres undefined)	7
O=C(CSc1nc2ccccc2[nH]1)NCCc1ccc(Cl)cc1	8
O=C(CCN1CCN(S(=O)(=O)c2ccc(Br)cc2)CC1)Nc1ccccc1F	17
CC(NC(=O)CSc1nc2sc3c(c2c(=O)n1-c1ccccc1)CCCC3)c1ccccc1 (centres undefined)	-3
Cc1ccc(N2C(=N)/C(=C3/Nc4ccccc4S3)C(c3ccccc3)C2=O)cc1 (centres undefined)	16
Cc1cnc(CN(C)C(=O)c2cc(COc3c(F)cccc3F)on2)[nH]1	17
NS(=O)(=O)c1ccc(CCNC(=O)NC2CCCCC2)cc1	17
Nc1nonc1C(=O)N/N=C/c1cc(Br)ccc1O	7
CC(=O)O/N=C(\N)Cc1ccc(-c2csnn2)cc1	29
Cn1nc(C(F)(F)F)c(-c2cccc(C(F)(F)F)c2)c1NC(=O)c1ccco1	13
Cc1ccc(NC(=O)C2CCCN2S(=O)(=O)c2ccc3c(c2)n(C)c(=O)c(=O)n3C)c(C)c1 (centres undefined)	16
CNC(=O)CSc1nc2[nH]ncc2c(=O)[nH]1	9
CS(=O)(=O)NN1C(=O)c2ccccc2NC1c1ccccc1 (centres undefined)	14
CC(C)(O)C#Cc1ccc(C(=O)N2CCN(c3ccc(Cl)cc3)CC2)cc1	18

Among those listed so far, 10 contain a furan ring, fused or not.
SMILES	Biofilm kill mix
Cc1ccc(Cl)cc1-n1ncc2c(NNC(=O)c3ccco3)ncnc21	14
CCS(=O)(=O)NCC(c1ccco1)N1CCN(c2ccccc2F)CC1 (centres undefined)	0
CCn1cc(C(=O)Nc2ccc(NC(=O)c3ccco3)cc2)c(=O)c2ccc(C)nc21	7
O=C(Nc1cccc(F)c1)/C(=C\c1cccnc1)NC(=O)c1ccco1	32
O=C(N/N=C/c1ccc([N+](=O)[O-])o1)c1ccc(NS(=O)(=O)c2cccs2)cc1	0
CCOCCCNC(=S)N1CCN(Cc2ccco2)CC1	10
O=C1/C(=C/c2ccco2)SC(=S)N1CC1CCCO1 (centres undefined)	13
Cc1ccc(NC(=O)CSc2nnc(-c3ccco3)o2)cc1	23
O=C(N/N=C/c1ccc(N2CCOCC2)o1)c1cccc(F)c1	8
Cn1nc(C(F)(F)F)c(-c2cccc(C(F)(F)F)c2)c1NC(=O)c1ccco1	13

Carrying on.
SMILES	Biofilm kill mix
CCOC(=O)C1CCN(S(=O)(=O)c2ccc(-c3ccccn3)s2)CC1	27
CN=C1NN=C(c2cc(C)n(-c3ccc(Cl)cc3)c2C)CS1	10
O=C(COc1ncnc2sccc12)Nc1ccc(F)cc1F	10
CCCCNC(=O)c1ccc(SCC(=O)N(CC)CC)c([N+](=O)[O-])c1	21
Cc1nn(C)c(C)c1CN(Cc1nc(CCC(C)C)no1)C(C)C	27
O=c1c2ccc([N+](=O)[O-])cc2ncn1CCOc1ccccc1	-15
Cn1nc(C(=O)N2CCCc3ccccc32)c2ccccc2c1=O	9
COc1ccccc1C1CC(c2ccccc2)=NN1C(=S)Nc1ccccc1 (centres undefined)	11
N#C/C(=C\c1ccc(O)cc1)C(=O)N1CCCC1	4
CCCCCCCCS(=O)CCC(=O)O (centres undefined)	20
S=c1[nH]nc(-c2cc(-c3ccccc3)n[nH]2)n1/N=C/C=C/c1ccccc1	17
CCn1cc([N+](=O)[O-])c(C(=O)N2N=C(c3ccc(OC)cc3OC)CC2c2ccccc2O)n1 (centres undefined)	8
O=C(c1ccncc1)N1CCN(c2ccc3ccccc3n2)CC1	9
CCCCCCCC1=CC2=CC(=O)C(C)(OC(C)=O)C(=O)C2=CN1CCc1ccccc1 (centres undefined)	14
COc1cc2cc(C(=O)N3CCN(Cc4ccc5c(c4)OCO5)CC3)c(=O)oc2cc1OC	13
COCCn1c(N)c(C(=O)NS(=O)(=O)c2ccc(C)cc2)c(=O)[nH]c1=O	32
COC(=O)[C@@]1(Cc2ccc(OC)cc2)[C@H]2c3cc(C(=O)N4CCCC4)n(CCN4CCNC4=O)c3C[C@H]2CN1C(=O)c1ccccc1	11
COc1ccc(N=N/C(=C\O)C(=O)c2ccco2)cc1	15
CN(C)c1ccc(C(=O)OCC(=O)Nc2ccc(N3CCOCC3)cc2)cc1	16
CN(/N=C/C=C/c1ccccc1)C1=NS(=O)(=O)c2ccccc21	6
COc1ccc(CCNC(=O)COc2ccc(-c3ccccc3)cc2)cc1OC	17
CCC(CC)c1nn2c(N)c(/C=C3\C=Nc4ccccc43)c(=O)nc2s1	14
Cn1nnnc1SCC(=O)N1CCOCC1	8
NNC(=O)c1sccc1OCc1cccc(C(F)(F)F)c1	19
CNC(=O)c1cc(NC(=O)CCn2nc(-c3ccccc3)c3ccccc3c2=O)ccc1OC	12
Cn1nc(C(=O)NC2CCCc3ccccc32)ccc1=O (centres undefined)	10
CCCCC(=O)NS(=O)(=O)c1ccc(N=NN(CC)CC)cc1	15
CC(C)OC(=O)C1C(=O)CC(C)(O)C(C(=O)OC(C)C)C1c1ccccc1 (centres undefined)	9
COc1ccc(-c2ccc([C@H]3[C@H]4C=CC[C@@H](C)[C@@H]4C(=O)N3Cc3ccccc3)c(F)c2)cc1C	17
O=c1c2c(n3cnnc3n1-c1ccccc1)-c1ccccc1CC21CCCC1	12
O=C(Nc1ccc(Nc2ccccc2)cc1)C(Cl)Cl	10
CCC(=O)Nc1nc2ccc(S(C)(=O)=O)cc2s1	11
Nc1ccnc(Oc2ccc(F)cc2)c1	5
COc1ccc(N2C(=O)C3C4C=CC(c5ccccc5)(C3C2=O)C2C(=O)N(c3ccc(OC)cc3)C(=O)C42)cc1 (centres undefined)	18
O=C(N/N=C/c1cc(Br)cs1)c1ccccc1[N+](=O)[O-]	7
CCOc1cc(NC(=O)c2cccs2)c(OCC)cc1NC(=O)c1cccnc1	13
COc1ccc(C2C(C(C)=O)=C(O)C(=O)N2CCc2c[nH]c3ccccc23)cc1 (centres undefined)	11
O=C(c1ccccc1)c1c(O)cc(-c2ccccc2)oc1=O	7
CCn1cc(CN(C)C(=O)/C=C/c2ccc([N+](=O)[O-])cc2)c(C)n1	20
O=C(c1ccc(F)cc1)N1CCCC(C(=O)N2CCc3ccccc3C2)C1 (centres undefined)	7
O=C(CCCCn1c(=O)[nH]c2ccccc2c1=O)NC1CCN(Cc2ccccc2)CC1	10
Cn1cc(CN2CCN(Cc3ccccc3)CC2)c(-c2cccc(Cl)c2)n1	2
NC(=O)/C(=C/c1ccc2c(c1)OCO2)NC(=O)c1ccco1	10
Cc1ccnc(NS(=O)(=O)c2ccc(NS(C)(=O)=O)cc2)n1	18
